Mtb hypoxia inh – reduces hypoxia-regulated biosensor signal in M. tuberculosis | 300,000 tested, 0.1% active | M. tuberculosis hypoxia-regulated fluorescent reporter, fluorescence | fluorescence inhibition, % (concentration not given with the values);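 active = 35 to 45% if threefold the growth effect, above 45% if 1.5-fold the growth effect; inactive = the rest, general growth blockers included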;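 note: wells of about 50 µL received 100 nL stock; 0% = vehicle wells and 100% = reference inhibitor wells; whole bacteria with a GFP reporter of the hypoxia response; strong numbers were not always called active; many hits fall short of the cut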
Autofluor counter – flagged as autofluorescent in microsphere protease counterscreen; fluorescence intensity (concentration not given with the values); compound autofluorescence counterscreen, microsphere flow cytometry; hits give high values; 360,000 tested, 3.1% active;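 active = at least 3 SD above the mean of all compounds, about 16000 in these data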;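 note: 100 nL of 1 mM stock went into each well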
Sa RN4220 lethal – kills Staphylococcus aureus RN4220 | S. aureus RN4220 growth, OD600, 16 h | inhibition, % (concentration not given with the values) | 330,000 tested, 0.33% active | AID 1259311;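 active = z-score of -3 or lower and OD600 up to 0.18 on both plates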;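 note: plate controls were untreated cells for no effect and reference antibiotic for full effect; stock transfer was 100 nL into about 80 µL; one replicate is shown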
BJeLR lethal – kills HRASV12-expressing BJeLR cells. BJeLR (HRASV12) viability, CellTiter-Glo ATP luminescence, 48 h; reference of the scale not given here. inhibition, % (concentration not given with the values). 300,000 tested, 0.17% active;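 active = replicate mean above 50%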;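 note: 50 nL library stock added to about 25 µL; numbers are from one replicate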
PrP 5UTR inh – suppresses PrP 5' UTR mRNA reporter expression; cell-based PrP 5' UTR mRNA reporter, plate reader; inhibition, % (test concentration not listed); 340,000 tested, 0.35% active;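 active = every replicate at 50% or more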;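 note: 0 = median of the neutral control wells; tested in H4 reporter cells; numbers are from one replicate; inactives centre near -14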
Sa ugtP lethal – compounds lethal to S. aureus RN4220 ugtP deletion mutant; OD600 growth, 16 h; some inactives read as strong as hits; growth inhibition, % (test concentration not listed); 330,000 tested, 0.54% active; AID 1259309;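 active = z-score under -3 and OD600 up to 0.15 on both plates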;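 note: plate controls were untreated wells for no effect and antibiotic for full effect; wells of about 80 µL received 100 nL stock; the first replicate is given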
Mtb hypoxia inh growth – also measured in Mtb hypoxia inh; calls as there; growth inhibition, %; measured here: M. tuberculosis growth (absorbance);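 0% = vehicle and 100% = reference antibiotic; read after six days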
* hit, by the source's call; . = not tested or not shown.

SMILES	Mtb hypoxia inh	Mtb hypoxia inh growth	Autofluor counter	Sa RN4220 lethal	BJeLR lethal	PrP 5UTR inh	Sa ugtP lethal
Cn1c(=O)oc2cc(S(=O)(=O)Nc3ccc(Cl)cc3)ccc21	3	8	3459	3.3	-3	-19	7
O=C(NNS(=O)(=O)c1ccccc1)c1cnn(-c2ccc(Cl)cc2)c1C(F)(F)F	-4	-22	5802	-1.6	-3	-50	-4
Cc1ccc(NCC(=O)NN=Cc2ccc([N+](=O)[O-])o2)cc1	-3	4	.	7.2	.	.	27
NC(=O)c1nsc(C(=O)N(c2cccc(F)c2)C(C(=O)NC2CCCC2)c2ccc(O)cc2)c1N (configuration not stated)	-3	-1	3074	3.3	-7	-23	13
O=C1CC(c2ccc(F)cc2)Sc2nc(C34CC5CC(CC(C5)C3)C4)nn21 (configuration not stated)	-4	16	2390	3.3	-7	-14	-1
COc1ccc(Cl)cc1NC(=S)NCc1cccs1	6	2	3362	0.8	-4	4	-5
CC(=O)N1N=C(c2ccc(C)c([N+](=O)[O-])c2)OC1(C)C	9	12	4596	5.6	-6	-19	1
O=C(CCNS(=O)(=O)c1ccc(Br)s1)NCc1ccccc1Cl	1	-4	4537	5.2	-3	-18	11
COc1ccc(C2CC(=O)C(C=NCCN3CCN(C(=S)Nc4ccccc4)CC3)=C(O)C2)cc1OC (configuration not stated)	7	2	4308	1.3	-1	-16	2
CC(C)Oc1ccc(/C(O)=C2/C(=O)C(=O)N(CCN(C)C)C2c2cccs2)cc1 (configuration not stated)	7	7	2124	7.0	-3	0	9
CCCCCOc1ccc(/C=N/NC(=O)c2nnn(-c3nonc3N)c2CN2CCCCCC2)cc1	.	.	6186	.	-5	-6	.
O=C(NC1CCCC1)C(c1ccco1)N(Cc1ccccc1)C(=O)c1csnn1 (configuration not stated)	5	9	20226*	2.2	4	-16	-7
Cc1ccc(-c2ccc(CCC(=O)O)n2CC2CCCO2)cc1 (configuration not stated)	-5	-9	22736*	1.6	1	-4	2
Cc1ccc(CNC(=O)C2CCCN(C(=O)N(C)C)C2)cc1 (configuration not stated)	10	2	8108	2.8	1	-16	12
CCCCN1C(=O)C(=O)N(CC(=O)NC2CCCc3ccccc32)C1=O (configuration not stated)	10	-2	4897	0.8	-3	-42	4

Some of the entries so far, in CSV form:
compound,Mtb hypoxia inh,Mtb hypoxia inh growth,Autofluor counter,Sa RN4220 lethal,BJeLR lethal,PrP 5UTR inh,Sa ugtP lethal
Cn1c(=O)oc2cc(S(=O)(=O)Nc3ccc(Cl)cc3)ccc21,3,8,3459,3.3,-3,-19,7
O=C(NNS(=O)(=O)c1ccccc1)c1cnn(-c2ccc(Cl)cc2)c1C(F)(F)F,-4,-22,5802,-1.6,-3,-50,-4
Cc1ccc(NCC(=O)NN=Cc2ccc([N+](=O)[O-])o2)cc1,-3,4,.,7.2,.,.,27
NC(=O)c1nsc(C(=O)N(c2cccc(F)c2)C(C(=O)NC2CCCC2)c2ccc(O)cc2)c1N (configuration not stated),-3,-1,3074,3.3,-7,-23,13
O=C1CC(c2ccc(F)cc2)Sc2nc(C34CC5CC(CC(C5)C3)C4)nn21 (configuration not stated),-4,16,2390,3.3,-7,-14,-1
COc1ccc(Cl)cc1NC(=S)NCc1cccs1,6,2,3362,0.8,-4,4,-5
CC(=O)N1N=C(c2ccc(C)c([N+](=O)[O-])c2)OC1(C)C,9,12,4596,5.6,-6,-19,1
O=C(CCNS(=O)(=O)c1ccc(Br)s1)NCc1ccccc1Cl,1,-4,4537,5.2,-3,-18,11
COc1ccc(C2CC(=O)C(C=NCCN3CCN(C(=S)Nc4ccccc4)CC3)=C(O)C2)cc1OC (configuration not stated),7,2,4308,1.3,-1,-16,2
CC(C)Oc1ccc(/C(O)=C2/C(=O)C(=O)N(CCN(C)C)C2c2cccs2)cc1 (configuration not stated),7,7,2124,7.0,-3,0,9
CCCCCOc1ccc(/C=N/NC(=O)c2nnn(-c3nonc3N)c2CN2CCCCCC2)cc1,.,.,6186,.,-5,-6,.
O=C(NC1CCCC1)C(c1ccco1)N(Cc1ccccc1)C(=O)c1csnn1 (configuration not stated),5,9,20226*,2.2,4,-16,-7
Cc1ccc(-c2ccc(CCC(=O)O)n2CC2CCCO2)cc1 (configuration not stated),-5,-9,22736*,1.6,1,-4,2

Continuation:
SMILES	Mtb hypoxia inh	Mtb hypoxia inh growth	Autofluor counter	Sa RN4220 lethal	BJeLR lethal	PrP 5UTR inh	Sa ugtP lethal
COc1ccc(CC(=O)NC2=NCCS2)cc1	.	.	.	0.6	4	-17	6
COc1ccc(C[C@H]2CN3C(=NC[C@H]3Cc3ccccc3)N2CCNC(=O)c2ccc(C)c(Br)c2)cc1	.	.	3701	.	20	-4	.
COc1ccccc1-c1noc(CCCC(=O)NC2CCCC2)n1	6	0	3137	-2.9	3	-20	11
COc1cccc2cc(CC(=O)c3ccccc3)c(=O)oc12	14	-4	3596	3.3	2	-50	4
Fc1ccc(C2Nc3cccc4cccc(c34)N2)cc1	.	.	3426	.	-4	0	.
COc1ccc(CNCC(O)(c2ccc(F)cc2)c2ccc(F)cc2)cc1OC	-3	-3	3290	-2.4	7	-5	-12
Oc1ccc(CN2CCCc3ccccc32)c2cccnc12	.	.	1727	-4.2	-4	-13	1
CS(=O)(=O)N1CCCC(C(=O)NCCCN2CCC(Cc3ccccc3)CC2)C1 (configuration not stated)	0	1	6423	4.5	11	-4	-2
Cc1ccc(C(=O)NNc2cc(N3CCCC3)nc(N3CCCC3)n2)cc1	15	12	.	9.3	-3	.	3
C[C@H](CO)N1C[C@H](C)[C@@H](CN(C)C(=O)Nc2ccc3c(c2)OCO3)Oc2ccc(NC(=O)Nc3ccc(C(F)(F)F)cc3)cc2C1=O	5	-1	3963	-25	.	-10	3
O=C(Cn1c(C(F)(F)F)nc2ccccc21)c1ccc(Br)cc1	.	.	3269	-1.1	0	-7	-4
CCOc1cc(-c2nc(C)c(C(C)=O)n2O)ccc1OCC(=O)Nc1ccccc1	10	10	3869	-4.6	10	-17	6
CCc1nn2c(=O)cc(CSCC(=O)Nc3ccccc3Cl)nc2s1	11	-3	6319	0.7	9	-14	5
CC1CN1P(=O)(Oc1ccc2ccccc2c1)N1CC1C (configuration not stated)	6	2	4050	3.7	.	-23	3
CCOc1ccc(Nc2c3c(nc4ncnn24)CC(C)CC3)cc1 (configuration not stated)	.	.	3059	-0.2	10	-15	10
Cc1ccc(-n2c(SCC(=O)NCCN3C(=O)CSC3=O)nnc2-c2cccc(C)c2)cc1	8	3	2079	-0.7	-1	-8	11
O=C(Nc1cccnc1)c1cccc(S(=O)(=O)Nc2cccc(Cl)c2)c1	17	8	.	2.3	.	.	2
Cc1cccc(C)c1OCc1cc(C(=O)N2CCN(Cc3nccn3C)CC2)no1	1	4	5505	1.3	6	-4	7
C/C(=N\NC(=O)COc1cc(C)cc(C)c1)c1cccc(NC(=O)C2CCC2)c1	.	.	5656	.	-3	-13	.
CN(C(=O)CSc1nnnn1-c1ccc(Cl)cc1)C1CCS(=O)(=O)C1 (configuration not stated)	3	-1	3643	3.5	.	-13	5
Cc1ccc(-c2nc3[nH]c(=O)cc(NC(=O)C(C)C)n3n2)cc1	9	19	4357	6.8	-6	-15	4
CCOC(=O)c1ccc(Oc2nc(OC)cc(OC)n2)cc1	-3	-6	2048	2.0	1	-19	17
COc1ccc(C2=NN(S(C)(=O)=O)C(c3cccs3)C2)cc1OC (configuration not stated)	-5	-1	5313	8.4	4	-40	15
CSc1sc(C(=O)NCC2CC2)cc1S(=O)(=O)C(C)C	0	-11	4296	-1.7	-12	-18	-4
Cc1ccc(/C=C/C(=O)N2CCc3ccccc3C2)cc1	.	.	4647	2.3	2	-18	7
CN(C)CCN(Cc1ccccc1)c1ccnc(N(C)C)c1C#N	.	.	2941	0.5	-3	-9	4
CCCCn1c(=O)c(C(=O)Nc2cnccn2)c(O)c2ccccc21	2	6	2784	68	-11	-35	83*
CN(Cc1ccc(Cl)cc1Cl)C(=O)c1cc(=O)c2ccccc2o1	.	.	3815	.	-5	-1	.
O=S1(=O)NC(=NC2CCCCCC2)c2ccccc21	12	0	11451	0.5	-1	-37	-3
COc1ccc(S(=O)(=O)N(C)C[C@H]2Oc3ccc(NC(=O)NC(C)C)cc3C(=O)N([C@H](C)CO)C[C@@H]2C)cc1	4	-3	3168	-13	.	-20	-3
CCOc1cc(S(=O)(=O)NC2CCCC2)ccc1Cl	.	.	2707	2.9	.	-13	-1
COc1cc(NC(=O)CSc2nnc3n2C(C)(C)Cc2ccccc2-3)cc(OC)c1	9	1	16774*	3.7	5	-7	2
C#CC(CC)(CC)NC(=S)Nc1ccc(S(N)(=O)=O)cc1	4	-2	2484	9.5	6	-20	7
c1ccc2c(c1)OCCOCCOCCO2	8	-5	5905	2.1	7	3	0
O=C(c1ccco1)N(Cc1cccs1)C1CCS(=O)(=O)C1 (configuration not stated)	.	.	3524	0.3	5	-6	7
O=C(OCN1C(=O)c2ccccc2C1=O)C1CCCCC1	-2	6	2588	0.2	-3	5	-1
CC(CC(=O)Nc1ccccn1)=NNC(=O)C(=O)Nc1ccccc1C	4	3	.	-15	.	.	-5
COc1ccc(NC(=O)CCCC2=NS(=O)(=O)c3ccccc3N2)cc1	6	6	6140	1.0	-5	-35	5
Cc1cccc(C(=O)Nc2cccc(-c3cnc4ccccc4n3)c2)c1	4	1	10686	1.1	9	.	3
COc1ccc(NC(=O)Nc2ccc3nccnc3c2)cc1	.	.	5506	-2.7	0	-112	5
CC(=NNC(=O)OC(C)(C)C)c1cccc([N+](=O)[O-])c1	4	3	.	17	.	.	-1
COc1ccc(-n2ccn(CC(=O)Nc3ccc(OC)cc3OC)c(=O)c2=O)cc1	-4	1	5205	1.8	-15	-1	3
CCCN1C(=O)/C(=C2\SC(=S)N(c3c(C)n(C)n(-c4ccccc4)c3=O)C2=O)c2ccccc21	9	4	.	3.5	-8	.	5
COc1ccc(CN=C2NC(=O)CC(C(=O)Nc3ccc([N+](=O)[O-])cc3C)S2)cc1 (configuration not stated)	13	8	3140	-6.0	.	-9	6
CC(=O)N1N=C(c2ccc(Cl)cc2)OC1(C)C	0	1	2440	14	-3	-35	4
COc1ccc(C2C(C(C)=O)=C(O)C(=O)N2Cc2cccnc2)cc1 (configuration not stated)	-2	-2	10417	2.6	13	-8	2
C=CCOc1ccc(C2C3=C(CCCC3=O)N(CC(=O)O)C3=C2C(=O)CCC3)cc1OCC	0	-2	3282	2.0	1	-10	-1
COc1ccc(C=NNc2ncc(-c3ccccc3)cn2)c(OC)c1	12	3	.	3.6	.	.	9
CCOC(=O)c1ccc(NC(=O)NCc2ccc(OC)cc2)cc1	0	1	2561	3.0	-10	-16	0
COc1ccc(/C=C2/CCc3ccccc3C2=O)cc1CN1CCOCC1	4	2	10614	-1.1	-3	-27	5
O=C(Cc1cccc(F)c1)Nc1ccc2c(c1)CCC2	6	2	4131	-0.2	6	-24	1
CC(=NNC(=O)c1ccccn1)c1ccco1	11	10	.	8.1	.	.	-2
CCOc1ccc(C=NO)cc1	9	9	.	3.7	.	.	-6
CC(=O)Cn1c(=O)oc2ccccc21	7	-6	6204	3.2	-1	-15	7
CC(C)CN(C(=O)COc1ccc(-c2nnco2)cc1)C1CCS(=O)(=O)C1 (configuration not stated)	4	2	5674	3.5	2	-8	4
COCCCn1c(N)c(C(=O)OC(C)COC)c2nc3ccccc3nc21 (configuration not stated)	.	.	2496	-2.6	-1	-13	-2
CCn1nc2cc(C(=O)NCCc3cccs3)ccc2c1OC	17	10	3958	5.0	7	-21	2
O=C1c2cccc3c([N+](=O)[O-])ccc(c23)C(=O)N1c1ccccn1	.	.	2295	2.0	10	-20	14
O=C(c1ccc(Cl)cc1)n1c(NCc2ccccc2)n[nH]c1=S	6	8	4468	2.2	4	-19	1
CN(CC(=O)Nc1ccc(S(=O)(=O)N2CCCC2)cc1)Cc1ccc(Cl)cc1	10	-1	2507	0.5	-3	-15	3
CC1Cc2nc(SCC(=O)NCc3ccco3)n(Cc3ccccc3)c(=O)c2S1 (configuration not stated)	4	0	6758	4.0	-8	-21	4
O=C(CN1CCOCC1)OCCCC1CCCCC1	.	.	.	3.1	9	-48	3
